Bioassay records (PubChem)
Cruzain noTriton: qHTS Assay for Promiscuous and Specific Inhibitors of Cruzain (without detergent) | Cruzipain (Trypanosoma cruzi), P25779 | purified cruzain, Z-FR-AMC fluorescence, no detergent | Potency, µM, inactives show max response, negative = inhibition, hits mostly inhibitors | hit rate 2.3% among 200,000 | AID 1476, 2009;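 further: plate controls were enzyme without inhibitor for no effect and buffer without enzyme for full effect; nearly all actives have a fitted effect of over 40% in size; top concentration of the series not given in the record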
Target sequence (P25779 123-467 limits assumed): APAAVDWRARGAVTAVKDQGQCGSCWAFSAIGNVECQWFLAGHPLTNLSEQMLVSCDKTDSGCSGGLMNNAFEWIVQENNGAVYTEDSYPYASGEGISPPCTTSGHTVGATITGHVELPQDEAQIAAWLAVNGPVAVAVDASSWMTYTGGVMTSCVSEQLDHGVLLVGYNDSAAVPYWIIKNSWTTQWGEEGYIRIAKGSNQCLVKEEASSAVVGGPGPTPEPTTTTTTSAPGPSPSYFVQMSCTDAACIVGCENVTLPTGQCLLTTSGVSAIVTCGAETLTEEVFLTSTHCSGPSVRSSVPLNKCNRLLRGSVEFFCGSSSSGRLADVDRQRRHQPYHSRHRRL
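Purified cruzain at 1.5 nM, pre-incubated 15 min with compound at room temperature in 100 mM sodium acetate pH 5.5, 5 mM DTT, 0.00005% Triton X-100. Reaction started with 2 uM Z-FR-AMC; AMC fluorescence increase over 60 s gives rate.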
2A StopGo: High Throughput Screening for Foot and Mouth Disease Virus Antivirals; hit rate 1.2% among 410,000; human cells with a luciferase reporter of 2A StopGo recoding; control for the full effect not named in the record; AID 1159524, 2015; Potency, µM (titrated, usually from 57.9 µM), without a hit: top-dose signal change, negative = less light; active = well fitted falling curve with a large enough effect; inconclusive = small, poorly fitted or top-dose-only effect; inactive = no such curve, though single readings can be large or run the other way; tested in HEK293T cells; further: on the % scale 0 is the no-effect control and ±100 the full control effect; nearly all actives have a fitted effect of over 45% in size; luciferase light after 4 h
SARS PLP yeast: qHTS of Yeast-based Assay for SARS-CoV PLP | S. cerevisiae expressing SARS-CoV PLpro, growth rescue; control for the full effect not named in the record | Potency, µM (series often up to 32.9 µM), inactives show at the top dose activity, positive = growth rescue | hit rate 0.19% among 330,000; active means well fitted rising curve with a large enough effect; inconclusive means small, poorly fitted or top-dose-only effect; inactive means no such curve, though single readings can be large or run the other way; further: 0% is about no effect; nearly all actives have a fitted effect of over 55% in size; growth read by luminescence after 48 h
RE007 growth inh: qHTS Assay for Inhibitors of the HIV-1 protein Vpr; hit rate 0.21% among 360,000; S. pombe RE007 Vpr strain, BacTiter-Glo ATP luminescence, 24 h; control for the full effect not named in the record; Potency, µM (doses to about 92.2 µM), without a hit: top-dose activity change, negative = less growth; active = well fitted falling curve with a large enough effect; inconclusive = small, poorly fitted or top-dose-only effect; inactive = no such curve, though single readings can be large or run the other way;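 further: on the % scale 0 is the no-effect control and ±100 the full control effect; nearly all actives have a fitted effect of over 50% in size; the assay follows cell death caused by Vpr and the record does not say whether a fall means rescue or toxicity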
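Fission yeast RE007 carrying one integrated HIV-1 vpr copy, seeded at OD 0.01 in PMG+AL medium with 23 nL pinned compound. Grown 24 h at 30 degrees; viability read by BacTiter-Glo luminescence after 5 min.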
LASV entry inh: qHTS for Inhibitors of binding or entry into cells for Lassa Virus; Lassa virus pseudotype entry inhibition, cell reporter; control for the full effect not named in the record; Potency, µM (top dose mostly 37.9 µM), for the others: top-dose activity change, negative = inhibition, hits mostly inhibitors; hit rate 1.2% among 300,000; AID 540256, 2011; active means well fitted inhibition curve with a large enough effect; inconclusive means small, poorly fitted or top-dose-only effect, or effect the other way; inactive means flat fitted curve, though single readings scatter; tested in HEK293 cells; further: on the % scale 0 is the no-effect control and ±100 the full control effect; nearly all actives have a fitted effect of over 50% in size; luciferase read-out
Cruzain Triton: qHTS Assay for Promiscuous and Specific Inhibitors of Cruzain (with detergent). Cruzipain (Trypanosoma cruzi), P25779. purified cruzain, Z-FR-AMC fluorescence, 0.01% Triton. Potency, µM, for inactives: max response, negative = inhibition, hits mostly inhibitors. hit rate 0.43% among 200,000;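 further: plate controls were neutral wells for no effect and buffer without enzyme for full effect; nearly all actives have a fitted effect of over 40% in size; top concentration of the series not given in the record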
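In this qHTS format, compounds are incubated with 1.5 nM cruzain for 15 min at room temperature before 2 uM Z-FR-AMC is added. Release of AMC is followed at 360/450 nm, and progress is taken as the 60 s fluorescence difference.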
NS1 function inh: qHTS Assay for Inhibitors of Influenza NS1 Protein Function; hit rate 0.4% among 270,000; S. cerevisiae slowed by influenza A NS1, growth recovery by OD600; AID 2326, 2010; Potency, µM (doses to about 46.1 µM), for inactives: top-dose activity, positive = more growth; active means well fitted rising curve with a large enough effect; inconclusive means small, poorly fitted or top-dose-only effect; inactive means no such curve, though single readings can be large or run the other way; further: nearly all actives have a fitted effect of over 50% in size
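Read-out: OD600 growth recovery of NS1-expressing budding yeast. Cells grown overnight at 30C in -URA glucose medium, washed, resuspended and diluted 1:100 in 2% galactose assay medium, pH 6.0. Same strain lacking NS1 served as positive control.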
MARV entry inh: qHTS for inhibitors of binding or entry into cells for Marburg Virus; Marburg virus pseudotyped entry inhibition, cell reporter; control for the full effect not named in the record; about a third of the inactives were read at about 46 µM; AID 540276, 2011; hit rate 1.8% among 300,000; Potency, µM (series often up to 37.8 µM), without a hit: at the top dose activity change, negative = inhibition, usual class: inhibitors; active = well fitted inhibition curve with a large enough effect; inconclusive = small, poorly fitted or top-dose-only effect, or effect the other way; inactive = flat fitted curve, though single readings scatter; tested in HEK293 cells; about a fifth of its hits are not listed in these tables; further: on the % scale 0 is the no-effect control and ±100 the full control effect; luciferase read-out
* marks the source's active call; other numbers are inactive results; ? = inconclusive; · = not tested or not shown; & = joins results of further samples; [ ] = remark or other dose. Unless noted, the call rests on the fitted dose curve; in most records, active means well fitted curve in the direction sought with a large enough effect; inconclusive means small, poorly fitted or top-dose-only effect, or another doubt; inactive means no such curve, though single readings can be large; an effect the other way counts as inactive or inconclusive. Potency means the concentration at half of the fitted maximal effect. Random draw from the library. About 4.7% of those tested had a hit in this group.

SMILES	Cruzain noTriton	2A StopGo	SARS PLP yeast	RE007 growth inh	LASV entry inh	Cruzain Triton	NS1 function inh	MARV entry inh
O=C(Cn1cccc1C(=O)c1ccccc1)NCc1ccccc1	3%	42%[activator]	7%	-16%	-2%	-4.1%	3%	-6%
CCC(=O)Nc1ccc2nc(C)n(CC(=O)Nc3ccccc3)c(=O)c2c1	9%	·	16%	18%	-4%	1.8%	1%	-12%
CC(C)CC(NC(=O)CNC(=O)C1O[C@@H]2OC(C)(C)O[C@@H]2[C@H]2OC(C)(C)O[C@@H]12)C(=O)O (stereo not given in full)	·	0%	-4%	3%	·	·	3%	·
COc1ccc(C(=O)COC(=O)c2ccc3c(c2)NC(=O)CS3)c(OC)c1	·	?	-2%	-8%	-3%	·	·	?
O=C(CN1C(=O)c2ccccc2S1(=O)=O)NC1CCCC1	-2%	76%[activator]	0%	3%	20%	-3.9%	-1%	10%
CC(=O)c1cccc(NC(=O)COc2cc3oc(=O)c(CC(C)O)c(C)c3cc2Cl)c1 (stereo not given)	?	?	23%	2%	-19%	-13%	-6%	?
COc1ccc(NC(=O)CSCC(=O)N2c3ccccc3CCc3ccccc32)cc1	-6%	-26%	-19%	15%	-3%	-5.1%	2%	-21%
Cc1cccnc1NC(=O)C(C)N1C(=O)c2ccccc2C1=O (stereo not given)	·	-16%	5%	-4%	6%	·	1%	?
Cc1nc2ncnn2c(C)c1Cc1cccc(F)c1	·	5%	0%	-3%	13%	·	4%	6%[46.1 µM]
COC(=O)CNC(=O)COC(=O)c1cc(F)c(F)cc1Cl	-1%	-14%	1%	7%	11%	-8.6%	4%	-1%[46.1 µM]
CCOC(=O)CSc1nnc(-c2cccc(Br)c2)o1	2%	-15%	11%	?	-9%	-7.7%	-56%	14%
Cc1ccc(NC(=O)O/N=C/c2c(C)nn(C(C)(C)C)c2C)cc1Cl	·	0.013µM*	-1%	3%	·	·	2%	·
CCOc1ccc(CCNC(=O)c2nn(C)c3c2CSc2ccc(C)cc2-3)cc1OCC	-4%	0%	·	·	-4%[46.1 µM]	-5.3%	·	·
N#CC(C#N)=C(Nc1ccc(F)cc1)SCc1cccc(F)c1	-14%	?	-5%	14%	13µM*	-11%	-35%	7.1µM*
O=C(Nc1ccc2c(c1)OCO2)c1cnc(Cl)c(Cl)c1	·	-4%	-4%	-9%	-1%	·	·	-21%
CC(C)Cn1nc(NC(=O)c2ccco2)c2cc3ccccc3nc21	·	-17%	-2%	3%	13%	·	-1%	?
CN1CCc2nc(SCCOc3ccccc3)c(C#N)cc2C1	-6%	·	-8%	6%	-7%	-0.8%	?	-19%
Cc1c(Cl)cccc1NC(=O)CC(Cc1ccccc1)C(=O)O (stereo not given)	·	13%	0%	-4%	10%	·	7%	?
CCCc1cc(=O)oc2cc(OCC(=O)Nc3cc(C)on3)ccc12	4%	-3%	12%	0%	9%	-0.1%	7%	-2%
CS(=O)(=O)NCC(c1cccnc1)N1CCN(c2ccccc2F)CC1 (stereo not given)	·	-7%	0%	-5%	·	·	2%	·
COCC(=O)Nc1ccc(S(=O)(=O)Nc2nccs2)cc1	·	3%	-14%	8%	10%	·	9%	?
COC(=O)c1ccc(CNC(=O)COC(=O)C23CC4CC(CC(C4)C2)C3)cc1	-5%	-7%	29%	-9%	-13%	0.1%	-4%	?
O=C(O)/C=C/c1ccc(S(=O)(=O)NCc2cccnc2)cc1	·	-14%	0%	1%	·	·	6%	·
O=C(O)CC(c1ccccc1)N1C(=O)c2cccc([N+](=O)[O-])c2C1=O (stereo not given)	·	-3%	?	14%	·	·	-43%	·
O=C(NCCc1ccc(Cl)cc1)C1CC(=O)N(C2CCCC2)C1 (stereo not given)	·	-13%	-4%	-7%	·	·	-8%	·
(list continues)
SMILES	Cruzain noTriton	2A StopGo	SARS PLP yeast	RE007 growth inh	LASV entry inh	Cruzain Triton	NS1 function inh	MARV entry inh
CC1CCN(Cc2cc(=O)oc3ccc4ccccc4c23)CC1	·	-20%	-2%	1%	11%	·	-9%	?
O=c1[nH]nc(Sc2ncnc3sccc23)n1CCc1ccccc1	-3%	?	0%	-6%	?	4.2%	-4%	?
COc1ccc2nc(NC(=O)CSc3n[nH]c(N)n3)sc2c1	·	-19%	-3%	-2%	?	·	·	?
CC(C)C(=O)Nc1nnc(SCC(=O)NCC2CCCO2)s1 (stereo not given)	·	-9%	1%	24%	-15%	·	·	-1%[46.1 µM]
CCN(CC(=O)NCc1cccs1)C(=O)CCC(=O)c1ccc(F)cc1	·	-4%	1%	-13%	-5%	·	·	-11%
Cc1ccccc1N1CCN(S(=O)(=O)c2nnc(NC(=O)CC(C)C)s2)CC1	·	-8%	-2%	-7%	·	·	2%	·
Cc1c(C)n(Cc2ccc(F)cc2)c2ccc(C(=O)N3CCN(c4ccc(Cl)cc4)CC3)cc12	7.9µM*	-16%	·	·	-32%[46.1 µM]	1.7%	·	·
COC(=O)c1ccc(NC(=O)C2CCCN2S(=O)(=O)c2ccc(OC)cc2)cc1 (stereo not given)	3%	-1%	13%	-25%	-4%	-2.8%	-7%	-4%
Cc1ccccc1-c1ccccc1N	2%	6%	3%	2%	-20%[46.1 µM]	-1.1%	6%	9%[46.1 µM]
Cc1ccc(CN2CCN(/N=C/c3ccc(C)s3)CC2)cc1	-4%	-10%	3%	-1%	10%	-1.6%	6%	?
COc1cc(CNCCc2ccccc2)cc(Cl)c1OCc1ccccc1	·	?	-2%	3%	?	·	·	?
COc1cc(C2c3c(oc4ccccc4c3=O)C(=O)N2c2ccc(C)cn2)ccc1O (stereo not given)	-4%	10%	15%	5%	?	-10%	-45%	1%&1%
O=C(NCc1n[nH]c(=S)n1-c1cccc(Cl)c1)c1ccc(S(=O)(=O)N2CCCCC2)cc1	·	7%	-2%	-19%	6%[46.1 µM]	·	?	2%[46.1 µM]
CN(Cc1ccccc1)C(=O)COC(=O)C1CCN(S(=O)(=O)c2cccs2)CC1	·	-7%	5%	-24%	0%[46.1 µM]	·	·	7%
CCc1cc2ccccc2nc1SCC(=O)N1CCN(C(=O)c2ccco2)CC1	23%	-27%	4%	5%	-22%	-5.7%	-52%	-26%
CC(C)CCN(CCC(C)C)C(CO)(CO)CO	·	1%	0%	-13%	-2%	·	1%	?
CCOC(=O)c1cc2c(=O)n3cccc(C)c3nc2n(CCOC)c1=NC(C)=O	·	-11%	-1%	-8%	-10%	·	-2%	6%[46.1 µM]
C[C@@H](NC(=O)c1nc[nH]c1C(=O)N[C@@H](Cc1ccccc1)C(=O)OCc1ccccc1)c1ccccc1	·	0%	1%	-14%	·	·	12%	·
CCN1CCN(CC(O)COc2ccc(C(C)=O)cc2)CC1 (stereo not given)	-14%	-23%	?	-4%	·	1.0%	-11%	·
Cc1c(C(=O)N2CCCCC2)nn(-c2ccc(Cl)cc2)c(=O)c1C#N	·	10%	0%	-5%	-5%[46.1 µM]	·	·	1%[46.1 µM]
CCCCn1c(N)c(N(CCOC)C(=O)c2cc(-c3ccco3)nc3ccccc23)c(=O)[nH]c1=O	·	-20%	-3%	0%	-10%	·	·	6%
CC(=O)Nc1nc(NCc2ccccc2Cl)n(-c2ccccc2)n1	·	-20%	-1%	0%	·	·	4%	·
c1ccc(COc2cccc(CNCc3ccccn3)c2)cc1	·	13%	1%	-11%	·	·	9%	·
O=C(c1ccc2c(c1)N(Cc1ccccc1F)C(=O)c1ccccc1S2(=O)=O)N1CCCCC1	15%	11%	·	·	-6%[46.1 µM]	-0.2%	·	-9%[46.1 µM]
Cc1cccc(C)c1Nc1c(-c2ccsc2)nc2ccccn12	-1%	0%	·	·	-15%[46.1 µM]	-15%	·	?
(continued)
SMILES	Cruzain noTriton	2A StopGo	SARS PLP yeast	RE007 growth inh	LASV entry inh	Cruzain Triton	NS1 function inh	MARV entry inh
COc1ccc(-c2cnnc(N/N=C/c3ccc(O)cc3)n2)cc1	·	0%	0%	-1%	2µM*	·	·	?
CNC(=O)C(=O)Nc1c(C)cc(C)cc1C	3%	-11%	2%	-12%	2%	-1.4%	14%	?
COc1ccc(C(=O)NNC(=O)C(=O)NC2CCCCC2)cc1	·	-9%	0%	-7%	7%	·	3%	-4%[46.1 µM]
CC(=O)Nc1ccc(S(=O)(=O)NNC(=O)c2ccc(C)cc2)cc1	5%	1%	3%	3%	-1%	0.2%	8%	19%
CC(C)(C)OC(=O)NCCCCCC(=O)N/N=C/c1coc2ccccc2c1=O	·	38%[activator]	0%	-15%	·	·	-31%	·
CN(C)CCCN(C(=O)c1ccc(S(=O)(=O)N2CCc3ccccc32)cc1)c1nc2c(Cl)cccc2s1	·	-18%	2%	1%	?	·	-7%	?
CC(C)[C@H](NC(=O)N1CCn2c1nc1ccccc12)C(=O)NCCc1ccccc1	·	-4%	3%	-10%	9%[46.1 µM]	·	-19%	?
c1csc(-c2csc3nc(CN4CCOCC4)nc(NCc4ccc5c(c4)OCO5)c23)c1	27%	?	-1%	1%	-13%	-30%	-37%	18µM*
Cc1cc2sc3nc(=O)n(-c4ccccc4)c(=O)n3c2cc1C	·	66%[activator]	-3%	-26%	?	·	-2%	?
CCc1cc2cc(C)c(C)cc2nc1SCC(=O)NNC(=O)c1ccco1	16%	·	-2%	8%	-16%	-2.8%	5%	4%
CCCCN(C(=O)c1ccc2c(c1)OCCO2)c1c(N)n(CCCC)c(=O)[nH]c1=O	·	-9%	-1%	29%	17%	·	·	0%
Cc1nn(Cc2ccccc2Cl)c(C)c1NC(=O)Cn1nc([N+](=O)[O-])c(Cl)c1C	21%	-6%	9%	-9%	3%	3.2%	19%	7%
CCOc1ccc(CN2CCc3nc(Nc4ccc5c(c4)OCCO5)ncc3C2)cc1	-9%	-8%	·	·	3%[46.1 µM]	-9.7%	·	·
Cc1ccc2c(=O)cc(C(=O)Nc3c(C)n(C)n(-c4ccccc4)c3=O)oc2c1C	-6%	-13%	·	·	12%[46.1 µM]	-1.5%	·	2%[46.1 µM]
